UCH37 DUB inh: inhibitors of human deubiquitinating enzyme UCH37 | AID 588478 | hit rate 0.33% among 330,000 | purified proteasome/UCH37, Ub-AMC cleavage fluorescence | Q9Y5K5 | inhibition, % (test concentration not listed);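 active = mean of two replicates above 20%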;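 also: 0% = compound-free wells with enzyme and 100% = wells lacking proteasome; stock transfer was 100 nL into about 20 µL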
Target sequence (Q9Y5K5 whole entry, looked up): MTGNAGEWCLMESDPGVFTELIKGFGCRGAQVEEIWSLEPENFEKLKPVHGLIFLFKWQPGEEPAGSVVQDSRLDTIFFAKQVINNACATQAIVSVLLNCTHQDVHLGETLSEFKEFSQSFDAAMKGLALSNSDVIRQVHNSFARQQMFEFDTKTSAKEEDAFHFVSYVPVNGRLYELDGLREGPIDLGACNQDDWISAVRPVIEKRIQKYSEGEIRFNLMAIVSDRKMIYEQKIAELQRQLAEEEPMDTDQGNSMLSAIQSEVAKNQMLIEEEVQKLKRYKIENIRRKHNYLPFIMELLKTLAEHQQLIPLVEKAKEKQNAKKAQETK
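Assay system: Proteasome-bound UCH37. Buffer or medium: pH 7.4 Tris-HCl (50 mM) with ovalbumin, ATP-MgCl2, DTT. Incubation: 30 min preincubation with enzyme, 25 min cleavage at room temperature. Measured by: fluorescence, ex 355 nm, em 460 nm. Read-out basis: percent inhibition. Control set: wells without proteasome as full block, compound-free enzyme plus substrate as uninhibited.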
T cruzi repl: T. cruzi replication inhibition; T. cruzi beta-gal in NIH3T3, luminescence, 90 h; inhibition, % (no concentration beside the values); hit rate 1.4% among 300,000;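 active = mean inhibition across valid replicates above about 55%, limit read from the data; inconclusive = mean below that limit but half or more replicates reach it; inactive = mean below it, under half of replicates reach it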;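 also: signal also drops with host cell toxicity which is not excluded here; 0% = plate median of DMSO wells and 100% = zero luminescence signal; higher percent means less beta-gal luminescence so fewer parasites; stock transfer was 50 nL into about 50 µL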
Beta cell apopt: blocks beta cell apoptosis | protection from apoptosis, % (concentration not given with the values) | INS-1E cytokine-induced death, ATP luminescence, 48 h; percent of positive-control rescue, neutral wells zero | hit rate 0.8% among 300,000 | AID 435005;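 active = all replicates at 75% or more, or half of them and the mean; inconclusive = half reach 75% but not the mean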;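 also: 0% = cytokine-treated negative control wells and 100% = positive control rescue; higher means more ATP so stronger rescue from cytokine killing; wells of about 40 µL received 100 nL stock; the first replicate is given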
Ecoli growth: blocks Escherichia coli growth; OD600, 23 h; active compounds read low; OD600 absorbance (test concentration not listed); hit rate 0.21% among 330,000;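 active = OD600 absorbance below the run mean of sample wells minus 3.6 SD, in any replicate, cut at about 0.56 in these data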;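 also: stock transfer was 300 nL into about 60 µL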
rRNA inh HTS: selective bacterial rRNA inhibition in E. coli; hit rate 1.6% among 350,000; GFP signal change (wild-type ribosome), % (test concentration not listed); AID 720706; E. coli WT GFP vs humanized-ribosome RFP mutants, fluorescence, 24 h; active compounds read low; DMSO median 0, no signal -100;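 active = significant combined selectivity score with lowered wild-type GFP, culture density cut under 30%, mutant RFP and density less affected; inactive = any of these conditions unmet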; also: one replicate is shown; some compounds called inactive have numbers as strong as hits
AF4-AF9 inh: MLL-AF4/AF9 protein interaction inhibition; inhibition, % at 10 µM; AID 651704; hit rate 0.47% among 350,000; AlphaScreen, biotin-AF4 peptide binding to FLAG-AF9; P42568;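 active = every replicate reaching a set inhibition limit, whatever the replicate mean, cut at about 25% in these data; inconclusive = mean inhibition reaches that limit but some replicates miss it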;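 also: 0% = plate neutral control median and 100% = total signal loss; the record names both 10 and 1 µM as test concentration; the first replicate is given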
Target sequence (P42568 whole entry, looked up): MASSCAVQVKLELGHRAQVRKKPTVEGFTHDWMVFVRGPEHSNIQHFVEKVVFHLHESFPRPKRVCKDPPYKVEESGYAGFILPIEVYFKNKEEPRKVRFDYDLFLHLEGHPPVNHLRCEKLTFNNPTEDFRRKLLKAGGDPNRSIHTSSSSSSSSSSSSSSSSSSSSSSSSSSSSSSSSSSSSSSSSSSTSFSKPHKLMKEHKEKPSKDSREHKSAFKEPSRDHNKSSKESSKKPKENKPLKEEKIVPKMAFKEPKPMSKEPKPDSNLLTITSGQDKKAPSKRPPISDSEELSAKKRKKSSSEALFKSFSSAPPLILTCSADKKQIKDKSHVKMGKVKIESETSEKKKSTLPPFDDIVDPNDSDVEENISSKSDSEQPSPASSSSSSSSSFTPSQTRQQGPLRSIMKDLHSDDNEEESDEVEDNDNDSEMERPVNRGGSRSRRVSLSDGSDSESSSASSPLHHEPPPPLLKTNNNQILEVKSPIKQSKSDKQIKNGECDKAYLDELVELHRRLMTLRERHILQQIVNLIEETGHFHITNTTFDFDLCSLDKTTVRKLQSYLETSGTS
Bfl-1 A1 inh: inhibitors of the anti-apoptotic protein A1, read as caspase activation | MEF A1-2A-BIM cells, Caspase-Glo 3/7 luminescence, 3 h; percent of clofoctol response, vehicle zero | caspase activation, % (concentration not given with the values) | hit rate 0.066% among 330,000 | AID 2462;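 active = over half of replicate activation scores above 10%, or exactly half above 10 with the replicate mean above 10; inconclusive = replicate mean below 10 yet half the replicates above 10; inactive = over half of replicates below 10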;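 also: wells of about 30 µL received 50 nL stock; many hits fall short of the cut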
FGF22 binding: shifts melting point of recombinant human FGF22; recombinant FGF22 thermal shift, SYPRO orange fluorescence; percent of sucrose octasulfate shift, DMSO zero; calls only at 9.99 µM; hit rate 1.5% among 340,000;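 active = melting point raised past a set limit in the mean and every replicate; inconclusive = no clear call; three in four hits are not shown here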
rRNA inh HTS OD600: also measured in rRNA inh HTS; calls as there; OD600 change, %; measured here: OD600 growth;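 optical density of the mix in the first replicate; 0 = DMSO median and -100 = no signal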
rRNA inh HTS RFP: further read-out of rRNA inh HTS, marked with its call; RFP signal change, %; measured here: RFP humanized mutant strains;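 first replicate; 0 = DMSO median and -100 = no signal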
Starred values were filed as active, the others as inactive; i = inactive; ? = inconclusive; . = not tested or not shown. Not all compounds are listed. The share of hits here may be higher or lower than overall.

cpd | SMILES | UCH37 DUB inh | Beta cell apopt | rRNA inh HTS | rRNA inh HTS OD600 | Bfl-1 A1 inh | FGF22 binding | rRNA inh HTS RFP | T cruzi repl | AF4-AF9 inh | Ecoli growth
1 | O=C(C(Cc1ccccc1)n1cccc1)N1CCCCC1 (stereo not given) | 2.8 | -5 | -5 | -18 | 0.4 | i | -4.4 | 6 | -2.7 | 0.72
2 | Cc1ccc(/C(N)=N/OC(=O)Oc2ccccc2)cc1 | 4.2 | 7 | . | . | 1.0 | . | . | -3 | . | 0.68
3 | Cc1ccc(CNC(=O)CCCCn2c(=O)[nH]c3ccsc3c2=O)cc1 | 3.2 | -1 | 2 | 1 | 0.0 | i | -4.8 | -5 | -22 | 0.65
4 | N#Cc1c(C(F)(F)F)cc(-c2cccs2)nc1N1CCCCC1 | -156 | 2 | -1 | 11 | 0.4 | i | 2.3 | 16 | -5.5 | 0.69
5 | CC(NC(=O)CN(C)Cc1nc2ccccc2c(=O)[nH]1)c1ccccc1 (stereo not given) | 0.5 | -2 | . | . | -0.2 | . | . | -6 | . | 0.71
6 | COC(=O)Cc1ccc(NC(=S)N2CCCC(CO)C2)cc1 (stereo not given) | . | 7 | 5 | 6 | -0.1 | i | -0.9 | 0 | -9.4 | .
7 | Fc1cccc(Cc2noc(CN3CCOCC3)n2)c1 | 4.2 | -1 | 6 | 6 | -0.4 | i | -6.5 | -10 | -5.5 | 0.64
8 | C=CCNc1nc(-c2ccc(Cl)cc2)cs1 | -5.2 | -7 | . | . | -5.9 | . | . | -31 | . | 0.72
9 | CSc1nc(C)cc(SCC(=O)N/N=C/c2ccccc2)n1 | . | -4 | 3 | 6 | 0.4 | i | -0.2 | 3 | -0.5 | .
10 | COCc1cc(C)nc(SCC(=O)Nc2cc(C(F)(F)F)ccc2N2CCOCC2)c1C#N | 7.5 | -2 | 11 | 16 | 1.2 | i | 2.0 | 67* | -1.8 | 0.74
11 | COc1ccccc1C(=O)NNC(=O)C(=O)NC1CCCCC1 | 5.8 | 1 | 1 | -15 | 0.4 | i | -0.4 | -4 | -0.7 | 0.68
12 | Cc1cccc2sc(N(CCCN(C)C)C(=O)CN3C(=O)c4ccccc4C3=O)nc12 | 4.8 | 1 | -5 | -2 | 0.1 | i | 10 | 45 | ? | 0.64
13 | c1ccc(CCc2nc(-c3cccnc3)no2)cc1 | 4.0 | 2 | . | . | -1.3 | . | . | -15 | . | 0.73
14 | CN(CC(=O)Nc1ccc(Cl)cc1)S(=O)(=O)c1ccc2c(c1)n(C)c(=O)c(=O)n2C | -4.6 | -4 | 4 | 17 | -0.6 | i | 0.2 | -15 | 0.0 | 0.65
15 | COc1ccc(C(=O)c2sc3nc(-c4ccc(OC)cc4)ccc3c2N)cc1 | -36 | -7 | -4 | -10 | 0.7 | i | -0.6 | 6 | -2.8 | 0.7
16 | O=C(O)CSC(C(=O)Nc1ccc(Br)cc1)c1ccc(Cl)cc1 (stereo not given) | 6.0 | -11 | -8 | -4 | -1.0 | i | -1.2 | -15 | -4.7 | 0.67
17 | O=C(O)c1cccc(S(=O)(=O)Nc2ccc(Cc3ccncc3)cc2)c1 | 1.2 | 0 | 1 | 1 | -0.7 | i | -0.2 | . | -2.7 | 0.71
18 | NC(=O)c1c(NC(=O)c2cccnc2)sc2c1CCCCC2 | -59 | . | 1 | 2 | -1.9 | i | 3.8 | -3 | 1.5 | 0.65
19 | Cc1ccc(S(=O)(=O)CC(O)COc2ccc(F)cc2Cl)cc1 (stereo not given) | 4.2 | -2 | -5 | 4 | -0.6 | i | -3.2 | -3 | -5.0 | 0.63
20 | COCCCNC(=O)Cc1coc2ccc3ccccc3c12 | 3.0 | -4 | 3 | -7 | -0.6 | i | 2.8 | -23 | -1.9 | 0.65
21 | CC(C)(CNC(=O)Cc1ccc(Br)cc1)N1CCOCC1 | 0.9 | -6 | 8 | 10 | -0.4 | . | 0.8 | -12 | 1.3 | 0.69
22 | COc1cc(/C=N/NC(=O)c2ccccc2O)ccc1OCC(=O)Nc1ccccc1 | . | 5 | 15 | 14 | -0.4 | i | 3.2 | -5 | 0.5 | .
23 | CC1(C)CC(=O)C(C=NCCc2ccccn2)=C(O)C1 | 1.1 | -11 | 15 | -1 | 0.6 | i | 7.9 | 4 | 5.0 | 0.71
24 | CCCCOC(=O)C1C2C=C[C@]3(CN(C(C)c4ccc(OC)cc4)C(=O)[C@H]13)O2 (stereo not given in full) | -2.5 | -6 | . | . | 0.2 | . | . | -5 | . | 0.74
25 | CC1=C(C(=O)Nc2ccccn2)C(c2cn(C)nc2C)C2=C(CCCC2=O)N1 (stereo not given) | -74 | -9 | 3 | 8 | -0.2 | i | 0.4 | -17 | -0.1 | 0.69
26 | CCCC1CC(C#N)N(N(C)C)C1=C(C#N)C#N (stereo not given) | 2.2 | -3 | 1 | -13 | 0.5 | i | -2.5 | -6 | -2.5 | 0.67
27 | CCOC(=O)N1CCN(C(=O)CSCC(=O)N=c2sc3ccccc3n2C)CC1 | 3.1 | . | . | . | 0.6 | . | . | -6 | . | 0.74

15 entries already listed, arranged by length of the SMILES, low to high:
cpd | SMILES | UCH37 DUB inh | Beta cell apopt | rRNA inh HTS | rRNA inh HTS OD600 | Bfl-1 A1 inh | FGF22 binding | rRNA inh HTS RFP | T cruzi repl | AF4-AF9 inh | Ecoli growth
20 | COCCCNC(=O)Cc1coc2ccc3ccccc3c12 | 3.0 | -4 | 3 | -7 | -0.6 | i | 2.8 | -23 | -1.9 | 0.65
1 | O=C(C(Cc1ccccc1)n1cccc1)N1CCCCC1 (stereo not given) | 2.8 | -5 | -5 | -18 | 0.4 | i | -4.4 | 6 | -2.7 | 0.72
2 | Cc1ccc(/C(N)=N/OC(=O)Oc2ccccc2)cc1 | 4.2 | 7 | . | . | 1.0 | . | . | -3 | . | 0.68
9 | CSc1nc(C)cc(SCC(=O)N/N=C/c2ccccc2)n1 | . | -4 | 3 | 6 | 0.4 | i | -0.2 | 3 | -0.5 | .
4 | N#Cc1c(C(F)(F)F)cc(-c2cccs2)nc1N1CCCCC1 | -156 | 2 | -1 | 11 | 0.4 | i | 2.3 | 16 | -5.5 | 0.69
19 | Cc1ccc(S(=O)(=O)CC(O)COc2ccc(F)cc2Cl)cc1 (stereo not given) | 4.2 | -2 | -5 | 4 | -0.6 | i | -3.2 | -3 | -5.0 | 0.63
16 | O=C(O)CSC(C(=O)Nc1ccc(Br)cc1)c1ccc(Cl)cc1 (stereo not given) | 6.0 | -11 | -8 | -4 | -1.0 | i | -1.2 | -15 | -4.7 | 0.67
17 | O=C(O)c1cccc(S(=O)(=O)Nc2ccc(Cc3ccncc3)cc2)c1 | 1.2 | 0 | 1 | 1 | -0.7 | i | -0.2 | . | -2.7 | 0.71
15 | COc1ccc(C(=O)c2sc3nc(-c4ccc(OC)cc4)ccc3c2N)cc1 | -36 | -7 | -4 | -10 | 0.7 | i | -0.6 | 6 | -2.8 | 0.7
22 | COc1cc(/C=N/NC(=O)c2ccccc2O)ccc1OCC(=O)Nc1ccccc1 | . | 5 | 15 | 14 | -0.4 | i | 3.2 | -5 | 0.5 | .
25 | CC1=C(C(=O)Nc2ccccn2)C(c2cn(C)nc2C)C2=C(CCCC2=O)N1 (stereo not given) | -74 | -9 | 3 | 8 | -0.2 | i | 0.4 | -17 | -0.1 | 0.69
12 | Cc1cccc2sc(N(CCCN(C)C)C(=O)CN3C(=O)c4ccccc4C3=O)nc12 | 4.8 | 1 | -5 | -2 | 0.1 | i | 10 | 45 | ? | 0.64
10 | COCc1cc(C)nc(SCC(=O)Nc2cc(C(F)(F)F)ccc2N2CCOCC2)c1C#N | 7.5 | -2 | 11 | 16 | 1.2 | i | 2.0 | 67* | -1.8 | 0.74
24 | CCCCOC(=O)C1C2C=C[C@]3(CN(C(C)c4ccc(OC)cc4)C(=O)[C@H]13)O2 (stereo not given in full) | -2.5 | -6 | . | . | 0.2 | . | . | -5 | . | 0.74
14 | CN(CC(=O)Nc1ccc(Cl)cc1)S(=O)(=O)c1ccc2c(c1)n(C)c(=O)c(=O)n2C | -4.6 | -4 | 4 | 17 | -0.6 | i | 0.2 | -15 | 0.0 | 0.65
